Rhodamine fluor – qHTS Assay for Spectroscopic Profiling in Rhodamine Spectral Region | max dye-equivalent concentration, M | Rhodamine-region fluorescence, 547/598 nm, Tris buffer; stronger effect = higher value | hit rate 0.05% among 59,000 | AID 594, 2007; in the data active = max dye-equivalent concentration above about 11 nM; inconclusive = between about 1.1 nM and that limit
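qHTS spectral profiling of compounds without any target or enzyme present, in pH 8.0 Tris buffer; plates were read after a 15-minute room-temperature incubation using the rhodamine-region filter set.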
Fluorescein fluor – qHTS Assay for Spectroscopic Profiling in Fluorescein Spectral Region. Compound autofluorescence, 480/540 nm, fluorescein-equivalent; stronger effect = higher value. max fluorescein-equivalent concentration, M. hit rate 0.91% among 59,000; in the data active = max fluorescein-equivalent concentration above about 10 nM; inconclusive = between about 1.1 nM and that limit
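Compounds were pin-transferred into 100 mM Tris buffer, pH 8.0, and incubated 15 min at room temperature. Fluorescence was read at 480 nm excitation/540 nm emission. Signals were normalized to an on-plate six-point fluorescein standard curve as dye-equivalent concentration.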
ERK AVP inh – qHTS Assay for Inhibitors of the ERK Signaling Pathway using a Homogeneous Screening Assay; HEK293-V1b, vasopressin-stimulated pERK AlphaScreen; Potency, µM (highest dose often 57.5 µM), for the others: at the highest dose activity, negative = inhibition, hits mostly inhibitors; hit rate 0.99% among 72,000; AID 995, 2007; also: potency is read from the fitted curve at half-maximal effect; % is scaled to controls: 0 for no effect and ±100 for the full control effect; nearly all actives have a fitted effect of over 55% in size
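HEK293 cells stably expressing V1b receptor, preincubated 30 min at 37 °C with compound, then stimulated 5 min with 25 nM vasopressin. Phospho-ERK by AlphaScreen SureFire after 5 h RT; normalized to DMSO and vasopressin; AC50 by Hill fit.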
TexasRed autofl – qHTS Assay for Spectroscopic Profiling in Texas Red Spectral Region. max dye-equivalent concentration, M. hit rate 0.06% among 59,000. Compound fluorescence, Texas Red channel, 547/618 nm; stronger effect = higher value; in the data active = max dye-equivalent concentration above about 10 nM; inconclusive = between about 1.1 nM and that limit
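Dye-equivalent concentrations come from scaling compound signal (ex 547, em 618 nm) to six Texas Red standard concentrations run on every plate, after 15 min room-temperature incubation in pH 8.0 Tris (100 mM).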
FLuc inh – qHTS Assay for Inhibitors of Firefly Luciferase | AID 411, 2009 | Potency, µM (titrated, usually from 57.1 µM), for inactives: at the highest dose activity change, negative = inhibition, usual class: inhibitors | purified firefly luciferase, luminescence, 8 min | Luciferin 4-monooxygenase (Photinus pyralis), P08659 | hit rate 2.2% among 72,000; also: potency is read from the fitted curve at half-maximal effect; % is scaled to controls: 0 for no effect and ±100 for the full control effect; nearly all actives have a fitted effect of over 40% in size
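Luminescence read-out after 8 min at room temperature; enzyme reaction used luciferin plus 10 uM ATP (linear range) in imidazole buffer pH 7.2 with KCl, MgCl2, Tween 20 and BSA. Each sample was run as a titration.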
Tau fil binding – qHTS Assay for Tau Filament Binding. recombinant tau filaments, thioflavin S fluorescence, 15 h; filaments grown with octadecylsulfate alongside compound. Potency, µM (top dose mostly 57.1 µM), inactives show top-dose activity change, negative = inhibition. Microtubule-associated protein tau (Homo sapiens), P10636. AID 596, 2007. hit rate 2% among 71,000;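 also: potency is read from the fitted curve at half-maximal effect; % is scaled to controls: 0 for no effect and ±100 for the full control effect; actives lower thioflavin S fluorescence by blocking filaments or displacing dye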
Target sequence (P10636 whole entry, looked up): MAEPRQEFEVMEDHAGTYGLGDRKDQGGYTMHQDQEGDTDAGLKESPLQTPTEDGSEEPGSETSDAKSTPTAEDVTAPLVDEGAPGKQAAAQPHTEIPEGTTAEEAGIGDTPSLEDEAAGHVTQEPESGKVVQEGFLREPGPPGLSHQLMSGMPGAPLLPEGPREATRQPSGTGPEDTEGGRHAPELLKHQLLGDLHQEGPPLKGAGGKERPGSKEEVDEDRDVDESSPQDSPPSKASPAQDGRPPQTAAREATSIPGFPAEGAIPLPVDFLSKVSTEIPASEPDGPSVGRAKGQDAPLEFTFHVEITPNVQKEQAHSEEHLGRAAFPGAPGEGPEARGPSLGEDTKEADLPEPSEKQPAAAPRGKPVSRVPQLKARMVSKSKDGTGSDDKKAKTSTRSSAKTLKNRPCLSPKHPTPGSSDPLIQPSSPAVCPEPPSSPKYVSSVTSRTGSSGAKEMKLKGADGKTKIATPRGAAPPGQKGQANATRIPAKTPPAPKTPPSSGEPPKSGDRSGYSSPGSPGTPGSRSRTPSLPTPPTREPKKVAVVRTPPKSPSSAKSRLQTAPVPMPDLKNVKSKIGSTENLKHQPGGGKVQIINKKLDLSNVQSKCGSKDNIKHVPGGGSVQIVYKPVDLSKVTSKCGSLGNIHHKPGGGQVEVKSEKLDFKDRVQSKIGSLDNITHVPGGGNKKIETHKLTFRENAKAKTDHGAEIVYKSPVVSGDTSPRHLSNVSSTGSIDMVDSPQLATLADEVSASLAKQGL
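Assay mix: 1 uM His-tagged tau, 30 uM sodium octadecylsulfate, thioflavine S dye in HEPES/NaCl/DTT buffer. Compound is added prior to the inducer. Fluorescence after 15 h at 37 C.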
HEK293 cAMP ctrl – qHTS Assay for Agonists of the Thyroid Stimulating Hormone Receptor: Activators of Intracellular cAMP Concentrations in Parental HEK 293. parental HEK293 CNG cAMP sensor, membrane potential fluorescence. Potency, µM (titrated, usually from 57.1 µM), for the others: top-dose activation, hits mostly activators. hit rate 2.5% among 73,000. AID 938, 2007; also: potency is read from the fitted curve at half-maximal effect; % of control where 0% means no effect; nearly all actives have a fitted effect of over 55% in size
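Parental HEK 293 cells stably expressing a cAMP-gated CNG channel were loaded with membrane potential dye containing 100 uM RO 20-1724 for 60 min. Compound added for 30 min; depolarization read as fluorescence intensity at 590 nm.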
The depositor's hits bear a star; i = inactive; ? = inconclusive; [ ] = remark or other dose. Unless noted, calls follow the shape of the dose curve; as a rule, active = well fitted curve in the direction sought with a large enough effect; inconclusive = small, poorly fitted or top-dose-only effect, or another doubt; inactive = no such curve, though single readings can be large; an effect the other way counts as inactive or inconclusive.

Structure	HEK293 cAMP ctrl	FLuc inh	Rhodamine fluor	Tau fil binding	Fluorescein fluor	ERK AVP inh	TexasRed autofl
CC(=O)Nc1nn(C)c2nc3cc(C)ccc3cc12	3%	-5%	i	-25%	i	4%	i
N#Cc1ccc(NC(=O)c2cc3cc4c5c(c3oc2=N)CCCN5CCC4)cc1	9%	1%	i	i	2.3e-07M*	22%	i
COc1ccccc1CCn1c(=O)c(-c2cccs2)nc2cncnc21	?	1%[11.4 µM]	i	-6%	i	-24%	i
COCCn1c(=O)c(-c2cc(F)cc(F)c2)nc2cnc(N(C)C)nc21	15%	-1%[11.4 µM]	i	40%	i	16%	i
Fc1ccccc1N1CCN(Cc2nc(-c3ccccc3)no2)CC1	15%	-3%	i	i	?	-4%	?
O=C(c1cc2c(=O)n3ccccc3nc2s1)N1CCOCC1	?	-10%	i	-4%	i	2%	i
CC(C)Cn1nc(NC(=O)C2CCCO2)c2cc3ccccc3nc21 (stereo not given)	17%	-2%	i	25%	i	25%	i
COc1ccc2[nH]c(=O)c(CN(Cc3ccccc3OC)Cc3nnnn3CC3CCCO3)cc2c1 (stereo not given)	?	-4%	i	96%	?	8%	i
CN(C)c1ncc2nc(CCc3ccccc3)c(=O)n(CCC#N)c2n1	?	-1%[11.4 µM]	i	45%	i	-11%	i
Cc1cc(C)c2c(n1)nn1c(NCCCN(C)C)cc(C)nc21	18%	3%	i	117%	?	5%	i
Cc1cc(N2C(=O)CC(N3CCN(c4ccc(C(=O)c5cccs5)cc4)CC3)C2=O)no1 (stereo not given)	-6%	-5%	i	-4%	i	?	i
COCCOC(=O)C1=C(C)NC2=C(C(=O)CC(C)(C)C2)C1c1cccnc1 (stereo not given)	9%	2%	i	23%	i	-5%	i
Cc1cccc(-n2c(N)c(C(=O)NCCN3CCOCC3)c3nc4ccccc4nc32)c1	28%	-38%	i	24%	i	-10%	?
O=C1c2cccc3cccc(c23)N1CN1CCN(c2ccccn2)CC1	6%	2%	i	-3%	?	10%	i
CN1/C(=C\C(=O)c2cccs2)Sc2ccccc21	?	6.3µM*	i	0%	?	22%	i
COC(=O)c1c(N)n(-c2ccc(NC(C)=O)cc2)c2nc3ccccc3nc12	1%	0%	i	?	i	-15%	?
CCOc1ccc(C2C=C(c3ccc(F)cc3)Nc3ncnn32)cc1 (stereo not given)	?	-1%	i	i	?	-13%	?
COCCCNC(=O)c1c(N)n(-c2cccc(S(N)(=O)=O)c2)c2nc3ccccc3nc12	-14%	1%	i	68%	i	6%	i
Nc1cccc2c1C(=O)N(C(=O)c1ccc(S(=O)(=O)N3CCCCCC3)cc1)C2=O	5%	0%	i	i	?	4%	i
Cc1ccc(Cl)cc1N1CCN(C(=O)CN2C(=O)c3cccc4cccc2c34)CC1	25%	2%	i	61%	i	26%	i
COc1cccc(Cn2c(=O)c(-c3cccc(C#N)c3)nc3cnc(N4CCOCC4)nc32)c1	9%	-4%[11.4 µM]	i	1%	?	5%	i
CNc1nc2sc3c(c2c(=O)n1C)CC(C)(C)SC3	-23%	-4%	i	177%	?	-3%	?
O=c1c(-c2ccc(F)cc2)nc2cnc(N3CCOCC3)nc2n1C[C@H]1CCCO1	5%	-1%[11.4 µM]	i	4%	i	-5%	i
Cc1ccc(-c2cc(-c3ccccc3)c(C#N)c(N)n2)o1	27%	-19%	i	3.2µM*	?	27%	i
CS(=O)(=O)c1sc2nc(-c3cccs3)cc(-c3ccccc3)c2c1N	?	-1%	i	7.9µM*	?	?	i
CCN1c2ccccc2-c2nc3ccccc3n2C1c1cccnc1 (stereo not given)	32µM*	4%	i	54%	i	4%	i
COc1ccc(F)cc1CN1CCN(c2cc(C)nc3c4c(C)cc(C)nc4nn23)CC1	27%	3%	i	114%	?	9%	?
COCCn1nnnc1CN(CCc1ccc(OC)c(OC)c1)Cc1cc2ccc(C)cc2[nH]c1=O	?	-1%	i	?	?	1%	i
CCOC(=O)Cc1c(C)c2ccc(N(CC)CC)cc2oc1=O	28%	-4%	i	272%	i	-13%	i
CN(C)CCSc1nc(N)c2c3c(sc2n1)COC(C)(C)C3	-12%	-11%	i	13µM*	?	?	?
CN1CCN(c2ncc3nc(-c4ccc(Cl)cc4)c(=O)n(C4CC4)c3n2)CC1	7%	-1%[11.4 µM]	i	12%	i	19%	i
O=c1oc2c(CN3CCOCC3)c(O)c(Cl)cc2c2c1CCC2	-1%	-1%	i	-1%	i	-5%	?
Cc1ccc2cc3c(NC(=O)C(C)C)nn(C)c3nc2c1	7%	1%	i	-13%	i	15%	?
Cc1ccc2nc(NCCO)nc(-c3ccccc3)c2c1	9%	0%	i	25%	i	?	i
Cc1nc2cnc(Nc3ccccc3)nc2n(Cc2cccs2)c1=O	?	0%[11.4 µM]	i	27%	i	-2%	i
COc1cc2c(cc1OC)/C(=C/C(=O)N1CCOCC1)NC(C)(C)C2	-5%	1%	i	10%	i	?	i
O=c1c2c3nc4ccccc4nc3n(/N=C/c3cccs3)c2ncn1-c1ccccc1	-20%	-1%	i	25µM*	i	-15%	i
CCNc1ncc2nc(-c3cc(F)cc(F)c3)c(=O)n(CCc3ccccc3)c2n1	-5%	0%[11.4 µM]	i	87%	?	-9%	i
COC(=O)C1=CNC=C(C(=O)OC)C1c1ccc(Cl)cc1	7%	2%	i	-6%	i	11%	i
CCCCN(C(=O)NC(=O)C1=C(N2CCOCC2)/C(=C/c2ccccc2)CC1)S(C)(=O)=O	11%	-1%	i	-4%	i	-4%	i
COC(=O)c1sc2cnccc2c1N	1%	-5%	i	15%	?	-27%	i
N#CC1=C(N)Oc2cc3c(cc2C1c1ccc(Cl)cc1)OCO3 (stereo not given)	11%	0%	i	-13%	i	-19%	i
CCC(=Nc1ccc(N)cc1)C1=C(O)C(C(=O)OC)C(C)(C)CC1=O (stereo not given)	-9%	-13%	i	16µM*	i	?	?
COc1ccc(-c2nc3cnc(N4CCOCC4)nc3n(C3CC3)c2=O)cc1	?	0%[11.4 µM]	i	104%	i	-12%	i
O=C(NC12CC3CC(CC(C3)C1)C2)c1cc2nc(-c3ccco3)cc(C(F)(F)F)n2n1	-11%	7%	i	13µM*	i	51%[activator]	i
CN1CCN(c2ncc3nc(-c4cccc(C#N)c4)c(=O)n(C)c3n2)CC1	?	1%[11.4 µM]	i	52%	i	-9%	i
Cc1ccc(C(=O)/C=C/Nc2ccccc2C(N)=O)o1	5%	6.3µM*	i	40%	i	-21%	i
CCOC(=O)c1c(N)n(CCOC(=O)c2cccs2)c2nc3ccccc3nc12	0%	-4%	i	0%	?	-22%	i
COc1ccc(-c2nc3cnc(N4CCNCC4)nc3n(-c3ccccc3)c2=O)cc1	16%	-2%[11.4 µM]	i	114%	?	52%[activator]	i
O=c1c(-c2ccccc2)nc2cnc(N3CCOCC3)nc2n1CCc1ccccc1	14%	0%[11.4 µM]	i	2%	?	15%	i
CCOC(=O)c1cc2c(=O)n3ccccc3nc2n(C(C)C)c1=NC(=O)c1ccncc1	-19%	0%	i	-9%	?	23%	i
Cc1ccc(N=c2oc3cc(O)ccc3cc2C(N)=O)cc1	2%	13µM*	i	-23%	?	-22%	i
O=c1c(-c2ccc(F)cc2)nc2cnc(N3CCOCC3)nc2n1-c1ccccc1	?	0%[11.4 µM]	i	34%	i	-29%	i
COc1ccc(C2=CC(c3ccc(Cl)cc3)n3cnnc3N2)cc1OC (stereo not given)	?	1%	i	i	3.5e-08M*	-2%	i
N#Cc1c(-c2ccco2)cc(-c2ccc(F)cc2)nc1N	?	1%	i	-17%	i	5%	i
COc1ccc(-c2cc(C(F)F)n3ncc(C(=O)NCC4CCCO4)c3n2)cc1 (stereo not given)	7.9µM*	0%	i	-18%	?	-9%	?

Filtered by structure: the entries above with a furan ring, fused or not (4)
Structure	HEK293 cAMP ctrl	FLuc inh	Rhodamine fluor	Tau fil binding	Fluorescein fluor	ERK AVP inh	TexasRed autofl
Cc1ccc(-c2cc(-c3ccccc3)c(C#N)c(N)n2)o1	27%	-19%	i	3.2µM*	?	27%	i
O=C(NC12CC3CC(CC(C3)C1)C2)c1cc2nc(-c3ccco3)cc(C(F)(F)F)n2n1	-11%	7%	i	13µM*	i	51%[activator]	i
Cc1ccc(C(=O)/C=C/Nc2ccccc2C(N)=O)o1	5%	6.3µM*	i	40%	i	-21%	i
N#Cc1c(-c2ccco2)cc(-c2ccc(F)cc2)nc1N	?	1%	i	-17%	i	5%	i

(further entries)
Structure	HEK293 cAMP ctrl	FLuc inh	Rhodamine fluor	Tau fil binding	Fluorescein fluor	ERK AVP inh	TexasRed autofl
Cn1c(=O)c(-c2ccccc2)nc2cnc(N3CCNCC3)nc21	4%	0%[11.4 µM]	i	86%	i	-4%	i
CCCn1nc(NC(=O)c2cccs2)c2cc3cc(OC)ccc3nc21	12%	10µM*	i	94%	i	40%[activator]	i
Cc1cccn2c(=O)c3cc(C#N)c(=O)n(CCCN4CCOCC4)c3nc12	-6%	2%	i	3%	?	?	i
CCOC(=O)c1cc2c(=O)n3ccccc3nc2n(CCOC)c1=NC(=O)c1ccncc1	-21%	3%	i	-32%	i	25%	i
CCn1c(=O)c(C(C)=O)nc2ccccc21	-4%	7%	i	51%	?	?	i
CC(C)CCNC(=O)c1cnn2c(C(F)(F)F)cc(-c3ccco3)nc12	29%	-1%	i	16µM*	?	-14%	i
O=c1c(-c2cc(F)cc(F)c2)nc2cnc(N3CCOCC3)nc2n1CCc1ccccc1	12%	-1%[11.4 µM]	i	-6%	i	16%	i
CCn1nc(NC(=O)c2ccccn2)c2cc3cccc(C)c3nc21	?	1%	i	26%	i	-6%	?
N#CCCn1c2ccccc2c2nc3ccccc3nc21	23%	-1%	i	26%	i	?	?
Cn1c(=O)c(-c2ccccc2)nc2cnc(Nc3ccccc3)nc21	7%	0%[11.4 µM]	i	7%	i	-15%	i
COc1ccc(C2=CC(c3ccc(OC)c(OC)c3)n3nnnc3N2)c(OC)c1 (stereo not given)	18%	-3%	i	i	i	?	i
COCCn1c(=O)c(-c2ccc(F)cc2)nc2cnc(N3CCOCC3)nc21	2%	-1%[11.4 µM]	i	9%	i	3%	i

Not all compounds are listed, so the mix of outcomes need not match the whole.
